MLL AF4-AF9 inh: MLL-AF4/AF9 protein interaction inhibition. AlphaScreen, biotin-AF4 peptide binding to FLAG-AF9. inhibition, % at 10 µM. P42568. AID 651704. 350,000 tested, 0.47% active;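 active means every replicate reaching a set inhibition limit, whatever the replicate mean, cut at about 25% in these data; inconclusive means mean inhibition reaches that limit but some replicates miss it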;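 further: 0% = plate neutral control median and 100% = total signal loss; the record names both 10 and 1 µM as test concentration; the first replicate is given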
Target sequence (P42568 whole entry, looked up): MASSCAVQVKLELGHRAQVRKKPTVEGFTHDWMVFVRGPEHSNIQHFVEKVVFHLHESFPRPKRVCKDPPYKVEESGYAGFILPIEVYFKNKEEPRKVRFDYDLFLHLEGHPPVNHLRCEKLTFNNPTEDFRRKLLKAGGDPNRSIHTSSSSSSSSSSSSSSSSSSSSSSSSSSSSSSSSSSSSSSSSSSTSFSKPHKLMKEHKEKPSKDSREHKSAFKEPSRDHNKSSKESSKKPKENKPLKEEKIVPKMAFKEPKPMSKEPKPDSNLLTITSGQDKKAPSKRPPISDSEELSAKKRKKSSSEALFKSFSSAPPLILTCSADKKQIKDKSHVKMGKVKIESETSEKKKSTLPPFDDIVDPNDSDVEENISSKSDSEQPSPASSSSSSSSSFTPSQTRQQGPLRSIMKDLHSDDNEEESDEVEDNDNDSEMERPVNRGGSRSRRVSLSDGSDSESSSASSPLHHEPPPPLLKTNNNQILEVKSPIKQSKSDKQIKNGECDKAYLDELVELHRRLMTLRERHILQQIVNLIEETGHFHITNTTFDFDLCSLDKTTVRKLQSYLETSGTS
HNF4A DNA FP: change in binding of human HNF4 alpha to DNA. HNF4a-FITC DNA binding, fluorescence polarization, 1 h. activity change, % at 10 µM. 360,000 tested, 0.3% active; in the data active means activity change above about 30%, passing the limit was not always enough;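 further: controls were the assay level and a saturating level of protein; the project sought stronger binding though the title names inhibitors; some compounds called inactive have numbers as strong as hits; positive values seem to mean higher polarization but the record does not say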
Target sequence (P41235 whole entry, looked up): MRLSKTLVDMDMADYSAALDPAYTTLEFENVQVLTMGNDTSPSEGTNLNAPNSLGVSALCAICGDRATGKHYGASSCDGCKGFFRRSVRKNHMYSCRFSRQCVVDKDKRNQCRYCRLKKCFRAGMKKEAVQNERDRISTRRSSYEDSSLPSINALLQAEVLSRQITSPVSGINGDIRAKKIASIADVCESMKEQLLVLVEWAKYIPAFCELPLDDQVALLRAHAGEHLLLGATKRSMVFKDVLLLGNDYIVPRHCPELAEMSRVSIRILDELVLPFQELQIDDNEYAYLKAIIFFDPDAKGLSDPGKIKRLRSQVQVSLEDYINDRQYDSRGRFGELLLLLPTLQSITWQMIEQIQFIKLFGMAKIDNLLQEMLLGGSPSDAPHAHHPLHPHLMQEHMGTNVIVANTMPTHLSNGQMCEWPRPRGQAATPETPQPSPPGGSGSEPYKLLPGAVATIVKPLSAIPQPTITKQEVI
FGF22 binding: binders of recombinant human FGF22 by thermal shift | Q9HCT0 | SYPRO orange fluorescence; percent of sucrose octasulfate shift, DMSO zero | calls only at 9.99 µM | 340,000 tested, 1.5% active | AID 651658;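 active means melting point raised past a set limit in the mean and every replicate; inconclusive means no clear call; three in four hits are not shown here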
Vif A3G: HIV-1 Vif–A3G interaction blockers – biochemical, TR-FRET, GST-Vif 1-94, biotin-A3G peptide, dose response retest, primary screen (AID 1117319). TR-FRET GST-Vif / biotin-A3G peptide binding; higher % means a stronger effect; test concentration not given here; strong numbers were not always called active. inhibition, %, or IC50 in µM where a hit was titrated. 260,000 tested, 0.57% active;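 active means above the screen mean plus three standard deviations and confirmed in dose response; inconclusive means results disagree or hit not tested in dose response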;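 further: Vif residues 1-94 fused to GST binding biotinylated APOBEC3G peptide 110-148; 0% = full assay without inhibitor and 100% = GST in place of GST-Vif; retest series ran down from 100 µM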
ALR inh: inhibitors of human sulfhydryl oxidase ALR; P55789; purified ALR, DTT oxidation, H2O2 HRP-luminol luminescence; 290,000 tested, 3.8% active; inhibition, % (concentration not given with the values);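 active means mean and each replicate at 75% or more; inconclusive means only one of the two met; inactive means neither met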;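 further: stock transfer was 7.5 nL into about 7.5 µL; 0% = neutral wells and 100% = wells with inactivated enzyme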
Ecoli rRNA inh: selective bacterial rRNA inhibition in E. coli; E. coli WT GFP vs humanized-ribosome RFP mutants, fluorescence, 24 h; hits give low values; DMSO median 0, no signal -100; GFP signal change (wild-type ribosome), % (concentration not given with the values); 350,000 tested, 1.6% active;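 active means significant combined selectivity score with lowered wild-type GFP, culture density cut under 30%, mutant RFP and density less affected; inactive means any of these conditions unmet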; further: one replicate is shown; some compounds called inactive have numbers as strong as hits
Ecoli growth: E. coli growth inhibition | 330,000 tested, 0.21% active | AID 1053175 | OD600 absorbance (no concentration beside the values) | Escherichia coli growth, OD600, 23 h; hits give low values;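 active means OD600 absorbance below the run mean of sample wells minus 3.6 SD, in any replicate, cut at about 0.56 in these data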;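 further: stock transfer was 300 nL into about 60 µL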
Ecoli rRNA inh OD600: also measured in Ecoli rRNA inh; calls as there; OD600 change, %; measured here: OD600 growth;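 optical density of the mix in the first replicate; 0 = DMSO median and -100 = no signal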
Ecoli rRNA inh RFP: further read-out of Ecoli rRNA inh, marked with its call; RFP signal change, %; measured here: RFP humanized mutant strains;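 first replicate; 0 = DMSO median and -100 = no signal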
Starred values were filed as active, the others as inactive; i = inactive; ? = inconclusive; . = no result given; + = active, no number. These rows are one share of the data; the hit share may differ from the screen's.

SMILES	MLL AF4-AF9 inh	HNF4A DNA FP	FGF22 binding	Vif A3G	ALR inh	Ecoli rRNA inh	Ecoli rRNA inh OD600	Ecoli rRNA inh RFP	Ecoli growth
Cc1ccc(-c2nn(-c3ccccn3)c(=O)c3ccccc23)cc1	0.6	3.9	i	3%	0	-11	-18	-3.2	0.69
CCC(=O)N1[C@H](C(=O)NCc2ccc(F)cc2)[C@@H](CO)[C@@H]2Cn3c(cccc3=O)[C@@H]21	-0.5	.	i	.	.	2	5	0.9	.
C[C@@H]1CN([C@H](C)CO)S(=O)(=O)c2ccc(-c3cncnc3)cc2O[C@@H]1CN(C)C(=O)CC1CC1	-1.5	.	i	.	.	1	0	-2.3	.
CC(C)CC#Cc1ccc2c(c1)O[C@H](CN(C)C(=O)c1cccc(F)c1)[C@@H](C)CN([C@H](C)CO)S2(=O)=O	2.2	.	i	.	.	-4	-6	1.5	.
Cc1nc2ccsc2c(=O)n1-c1cccc(Cl)c1	-6.2	-2.5	i	.	-1	10	-2	3.5	0.7
CCOc1ccc2nc(NCCCO)[nH]c2c1	9.8	-2.1	i	23%	46	12	8	2.2	0.63
O=C(CNC(c1ccccc1)c1ccccc1)Nc1ccccc1F	0.0	2.4	i	.	-1	-12	-15	-2.1	0.66
Cc1ccc(C2NCCS2)cc1 (centres undefined)	-7.7	0.8	i	-2%	-8	11	21	-0.9	0.68
C[C@@H]1CCCCO[C@H](CN(C)Cc2ccncc2)[C@H](C)CN([C@H](C)CO)C(=O)c2cc(NC(=O)Nc3ccc4c(c3)OCO4)ccc2O1	21	.	i	.	.	-2	-12	2.7	.
O=C(COc1ccc(S(=O)(=O)N2CCOCC2)cc1)Nc1ccccc1Cl	-24	1.4	i	1%	-10	1	4	6.2	0.65
C[C@H]1CN([C@@H](C)CO)C(=O)c2ccccc2-c2ccccc2CO[C@H]1CN(C)C(=O)[C@@H]1CCCN1C	-3.6	.	i	.	.	0	2	-0.4	.
COc1ccc(Cl)cc1C(=O)Nc1ccc(S(N)(=O)=O)cc1	8.2	0.4	i	-5%	-9	-4	1	-0.2	0.69
Fc1cccc2sc(Nc3nc4ccccc4s3)nc12	.	-0.3	.	-53%	-6	.	.	.	0.67
COC(=O)C(NC(=O)c1c(C)nn(C)c1Cl)c1ccccc1 (centres undefined)	1.0	0.4	.	-1%	.	23	11	0.4	.
COc1ccc(NC(=O)c2ccc(NC(=O)COC(=O)c3cnc(C)cn3)cc2)cc1	2.4	3.5	i	1%	-1	8	18	-0.2	0.62
CC(OC(=O)C1=COCCO1)C(=O)NC1CCCC(C)C1C (centres undefined)	-0.4	-1.5	i	0%	.	19	13	3.4	.
COc1ccccc1C(=O)N/C(=C/c1ccc(Br)cc1)C(=O)NCCO	.	-0.8	.	-2%	-23	.	.	.	0.65
CCOC(=O)N/N=C/c1ccc(OCCSc2ccc(Cl)cc2)c(OCC)c1	.	-1.8	.	-4%	-16	.	.	.	.
COc1cc(/C=N/Nc2nc3ccccc3[nH]2)cc(OC)c1O	.	1.2	.	23%	99*	.	.	.	.
COC(=O)C1=C(C)N(C)C(=NCc2ccc3c(c2)OCO3)NC1c1ccc(F)cc1 (centres undefined)	1.6	.	.	.	.	9	14	5.0	.
CC(=O)c1ccc(NC(=S)NC(=O)CC(C)C)cc1	-1.3	0.7	i	-7%	-15	15	10	1.3	0.71
COc1ccc(S(=O)(=O)N(C)C[C@@H]2Oc3c(NC(=O)c4nc5ccccc5s4)cccc3C(=O)N([C@H](C)CO)C[C@H]2C)cc1	-2.2	.	i	.	.	-7	0	-5.3	.
COCCN(Cc1ccccc1)C(=O)C1CCN(S(=O)(=O)c2ccc3c(c2)OCCO3)CC1	6.6	0.1	i	-4%	.	-2	5	2.9	0.68
COc1ccc(/C=C/C(=O)N2CCNC(=O)C2)c(OC)c1	1.2	2.8	i	.	-5	8	13	0.9	0.64
CC1CCCCC12NC(=O)N(CC(=O)Nc1ccc(N3CCOCC3)cc1)C2=O (centres undefined)	-1.8	1.0	i	16%	24	5	7	-1.2	0.67
CCCCCN(C(=O)CCC(=O)OCc1ccccc1C(F)(F)F)c1c(N)n(CCCC)c(=O)[nH]c1=O	-2.7	1.6	i	.	-1	4	14	0.7	.
Cc1cccc(NC(=O)c2nc[nH]c2C(=O)N(C)Cc2ccccc2)c1	4.9	-4.2	i	.	21	-10	-15	-11	0.68
Nc1nnn(CC(=O)N/N=C/c2cccc(Cl)c2)n1	0.7	1.3	i	13%	-4	7	10	0.6	.
Cc1c(C(=O)OCC(=O)N(CCC#N)c2ccccc2)oc2c1ccc1ccccc12	.	1.3	.	-9%	.	.	.	.	0.73
O=C(O)c1cc(S(=O)(=O)Nc2ccc3oc(=O)sc3c2)ccc1O	.	.	.	4%	11	.	.	.	0.71

Arranged by SMILES length (low to high): 3 of the compounds above.
SMILES	MLL AF4-AF9 inh	HNF4A DNA FP	FGF22 binding	Vif A3G	ALR inh	Ecoli rRNA inh	Ecoli rRNA inh OD600	Ecoli rRNA inh RFP	Ecoli growth
Cc1c(C(=O)OCC(=O)N(CCC#N)c2ccccc2)oc2c1ccc1ccccc12	.	1.3	.	-9%	.	.	.	.	0.73
COCCN(Cc1ccccc1)C(=O)C1CCN(S(=O)(=O)c2ccc3c(c2)OCCO3)CC1	6.6	0.1	i	-4%	.	-2	5	2.9	0.68
CCCCCN(C(=O)CCC(=O)OCc1ccccc1C(F)(F)F)c1c(N)n(CCCC)c(=O)[nH]c1=O	-2.7	1.6	i	.	-1	4	14	0.7	.

(more compounds)
SMILES	MLL AF4-AF9 inh	HNF4A DNA FP	FGF22 binding	Vif A3G	ALR inh	Ecoli rRNA inh	Ecoli rRNA inh OD600	Ecoli rRNA inh RFP	Ecoli growth
O=C(Nc1ccc(Cl)cc1C(=O)Nc1ccccn1)c1ccco1	.	0.1	.	-2%	-4	.	.	.	0.73
C/C=C/c1ccc2c(c1)O[C@@H](CN(C)C(=O)Nc1cc(F)ccc1F)[C@@H](C)CN([C@H](C)CO)S2(=O)=O	1.4	.	+	.	.	-5	-1	-0.8	.
CCCOC1CCCN(C(=O)c2cc(COc3ccc(-n4cncn4)cc3)on2)C1 (centres undefined)	-1.2	1.4	i	0%	-3	-2	-8	-2.0	0.67
O=C(N/N=C/c1ccc([N+](=O)[O-])cc1)c1ccc2nc[nH]c2c1	.	0.6	.	3%	-1	.	.	.	.
Cn1cccc1Cc1nnc(SCC(=O)N2CCOCC2)n1CCc1ccccc1	1.0	3.1	i	27%	.	2	6	3.0	0.7
CC(C)NC(=O)c1ccc(COc2cccc3ccccc23)o1	-0.7	2.6	i	0%	.	14	-10	12	.
CN(C)CCNC(=O)C(=O)Nc1ccc2c(c1)N(S(=O)(=O)c1cccs1)CCC2	1.8	4.0	i	4%	-2	2	0	1.2	0.66
Cc1ccccc1Nc1n[nH]c(C)c1[N+](=O)[O-]	3.2	0.1	i	0%	-1	-2	3	0.2	0.63
Cc1ccc(C(=O)N(Cc2nnc(-c3ccccc3Cl)o2)C2CC2)o1	-1.4	-0.1	i	.	.	-6	-11	3.4	.
O=C(Nc1nc(-c2ccccc2)nc2ccccc12)c1ccc(F)cc1	-4.1	-3.7	i	.	0	30	18	2.8	0.67
Cn1c(=O)n(Cc2ccccc2)c(=O)c2c1nc1n2CCN1Cc1ccco1	4.8	4.8	i	2%	.	7	4	-0.7	0.67
CCS(=O)(=O)N1CCCCN2[C@@H](CO)[C@@H](c3ccc(-c4ccccc4F)cc3)[C@@H]2C1	0.2	.	i	.	.	1	2	11	.
C=CCNC(=S)NN(c1ccccc1)c1ccccc1	2.2	4.4	i	-5%	63	-4	-10	-4.4	0.6
Cc1c(C(=O)NCCSCc2ccccc2)cccc1[N+](=O)[O-]	3.4	5.9	i	?	-1	-8	6	0.1	0.7
CN(C)C=Nc1ncc2c3ccccc3n(Cc3ccccc3)c2c1C#N	.	2.1	.	-8%	-2	.	.	.	0.81
CN(C)CCCNC(=O)[C@@H]1[C@@H](CO)[C@@H]2Cn3c(ccc(-c4ccccc4)c3=O)[C@H]1N2C(=O)CC1CC1	-0.4	.	i	.	.	2	4	-2.2	.
Cc1ccc(S(=O)(=O)NCCC(=O)OCC(=O)N(Cc2ccccc2)C(C)(C)C)cc1C	-12	-5.3	i	-1%	3	-1	-8	2.0	0.66
O=C(Nc1ccc(Br)c2cccnc12)c1ccc(Cn2cc([N+](=O)[O-])cn2)o1	-4.5	-2.1	i	-1%	-150	-8	-17	0.8	0.71
COc1cc(NC(=O)C(=O)NCCN2CCNCC2)c(OC)cc1Cl	4.5	1.6	i	-9%	0	11	3	-4.6	0.67
O=C(Nc1ccccc1)c1cccc(=O)o1	.	3.2	i	-3%	.	8	12	-3.2	0.65
Cc1ccccc1C(=O)O/N=C/c1c(N2CCOCC2)n(C)c2ccccc12	.	-7.7	.	0%	6	.	.	.	.
C[C@@H]1Cn2cnc(C(=O)N3CCN(C(=O)OC(C)(C)C)CC3)c2C(=O)N1	-3.0	.	i	.	.	7	6	-1.9	.
CCOC(=O)N1CCC(C(N)=O)CC1	.	2.1	.	1%	-3	.	.	.	0.72
CC(C)C(=O)Nc1ccc(Nc2ccccc2)cc1	.	4.4	.	3%	.	.	.	.	0.65
C[C@H](CO)N1C[C@H](C)[C@H](CN(C)Cc2ccc(-c3ccccc3)cc2)Oc2c(NC(=O)c3cnccn3)cccc2C1=O	4.8	.	i	.	.	-9	-12	1.9	.
Cc1ccc(S(=O)(=O)NN=Cc2ccco2)cc1	0.8	0.6	i	-7%	.	19	19	-1.2	.
Cc1csc2ncc(C(=O)Nc3ccc(C(F)(F)F)cc3)c(=O)n12	2.4	1.2	i	-32%	-9	2	4	-1.0	0.74
COc1ccc(CNC(=O)c2cccc3c2C(=O)N(Cc2cccnc2)C3)cc1	.	1.6	.	15%	.	.	.	.	0.66
CN(C)c1ccc2c(c1)[C@@H]1C[C@@H](CC(=O)N3CCOCC3)O[C@@H](CO)[C@@H]1O2	-2.6	.	i	.	.	7	10	1.6	.
COc1cc(/C=N/NC(=O)C2COc3ccccc3O2)cc(OC)c1OC (centres undefined)	.	1.1	.	0%	-10	.	.	.	.
O=C1C=C(N2CCCCC2)C2(CCCCC2)O1	-2.1	3.9	i	.	1	8	3	0.3	0.69
COc1ccccc1C#Cc1ccc2c(c1)O[C@H](CN(C)Cc1ccccc1)[C@H](C)CN([C@H](C)CO)S2(=O)=O	-1.4	.	i	.	.	1	9	2.3	.
CC1(C)CC(=O)c2sc(N)nc2C1	.	1.0	.	5%	-1	11	12	6.8	0.67
Cc1ccc(CN2CCN(C(=O)CCN3C(=O)c4ccccc4C3=O)CC2)cc1	.	-2.7	.	-2%	0	.	.	.	0.67
CCc1cccc(NC(=O)NC2CCCCC2)c1	.	2.5	.	-6%	2	.	.	.	0.72
Cc1ccc(S(=O)(=O)NCCN=Cc2ccc(N(C)C)cc2)cc1	0.3	0.4	i	-4%	2	20	14	4.2	0.7
NS(=O)(=O)c1ccc(S(=O)(=O)N2CCCC(c3ccccc3)C2)cc1 (centres undefined)	-1.6	1.4	i	.	.	-3	-19	2.6	.
O=C(CN1CCc2ccccc21)Nc1ccc2c(c1)OCO2	.	-0.7	.	13%	-12	.	.	.	0.69
Cc1oc(-c2ccccc2)nc1CS(=O)CC(=O)O (centres undefined)	2.2	1.0	i	?	.	1	-2	0.6	0.72
CCc1nnc(N2C(=O)c3cccc4cccc(c34)C2=O)s1	.	-1.3	.	6%	-6	.	.	.	0.76
COCCCNC(=O)C1CC(=O)N(c2ccc(C)cc2)C1 (centres undefined)	.	1.6	.	0%	12	.	.	.	0.7
O=C(CCCCCn1c(=O)[nH]c2ccccc2c1=O)NCCc1c[nH]c2ccccc12	.	1.4	.	-10%	-11	.	.	.	0.72
